PrP 5UTR inh: suppresses PrP 5' UTR mRNA reporter expression. inhibition, % (concentration not given with the values). cell-based PrP 5' UTR mRNA reporter, plate reader. 0.35% of 340,000 active. AID 488862;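 active means every replicate at 50% or more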;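 further: 0 = median of the neutral control wells; tested in H4 reporter cells; numbers are from one replicate; inactives centre near -14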
Sa ugtP lethal: kills S. aureus RN4220 lacking UgtP; S. aureus RN4220 ugtP deletion, OD600 growth, 16 h; some inactives read as strong as hits; growth inhibition, % (no concentration beside the values); 0.54% of 330,000 active; AID 1259309;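 active means z-score under -3 and OD600 up to 0.15 on both plates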;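 further: plate controls were untreated wells for no effect and antibiotic for full effect; wells of about 80 µL received 100 nL stock; the first replicate is given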
Autofluor counter: flagged as autofluorescent in microsphere protease counterscreen | 3.1% of 360,000 active | compound autofluorescence counterscreen, microsphere flow cytometry; hits give high values | fluorescence intensity (concentration not given with the values) | AID 624483;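 active means at least 3 SD above the mean of all compounds, about 16000 in these data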;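 further: 100 nL of 1 mM stock went into each well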
BJeLR lethal: kills HRASV12-expressing BJeLR cells; BJeLR (HRASV12) viability, CellTiter-Glo ATP luminescence, 48 h; reference of the scale not given here; inhibition, % (concentration not given with the values); 0.17% of 300,000 active;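 active means replicate mean above 50%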;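 further: 50 nL library stock added to about 25 µL; numbers are from one replicate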
RN4220 kill: S. aureus RN4220 growth inhibition | OD600, 16 h | inhibition, % (test concentration not listed) | 0.33% of 330,000 active | AID 1259311;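 active means z-score of -3 or lower and OD600 up to 0.18 on both plates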;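 further: plate controls were untreated cells for no effect and reference antibiotic for full effect; stock transfer was 100 nL into about 80 µL; one replicate is shown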
Mtb hypoxia rep: reduces hypoxia-regulated biosensor signal in M. tuberculosis; 0.1% of 300,000 active; M. tuberculosis hypoxia-regulated fluorescent reporter, fluorescence; AID 1159583; fluorescence inhibition, % (concentration not given with the values);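 active means 35 to 45% if threefold the growth effect, above 45% if 1.5-fold the growth effect; inactive means the rest, general growth blockers included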;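 further: wells of about 50 µL received 100 nL stock; 0% = vehicle wells and 100% = reference inhibitor wells; whole bacteria with a GFP reporter of the hypoxia response; strong numbers were not always called active; many hits fall short of the cut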
Mtb hypoxia rep growth: recorded beside Mtb hypoxia rep, whose call it bears; growth inhibition, %; measured here: M. tuberculosis growth (absorbance);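 0% = vehicle and 100% = reference antibiotic; read after six days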
Starred values were filed as active, the others as inactive; · = no result given.

Letters – A = PrP 5UTR inh; B = Sa ugtP lethal; C = Autofluor counter; D = BJeLR lethal; E = RN4220 kill; F = Mtb hypoxia rep; G = Mtb hypoxia rep growth
COCC(=O)N(c1ccc(C(C)C)cc1)C1C=CS(=O)(=O)C1 (centres undefined)
  A = -16; B = -3; C = 7965; D = 1; E = -0.6; F = -3; G = 4

O=C(Nc1nnc(C2CC2)s1)c1ccc(Cl)nc1
  A = -20; B = -14; C = 8592; D = ·; E = 3.7; F = -12; G = 7

Cc1ccc(C(=O)Nc2ccc(S(=O)(=O)N3CCOCC3)cc2)cc1
  A = -5; B = -2; C = 2060; D = -13; E = 0.4; F = -15; G = 3

CC(C)Oc1ccc(/C=C(/NC(=O)c2ccccc2)C(=O)NCCC(=O)O)cc1
  A = -24; B = 6; C = 2045; D = 8; E = 6.7; F = 6; G = 5

O=c1[nH]cc(COCc2ccccc2)c(=O)[nH]1
  A = -27; B = -2; C = 10822; D = -2; E = 4.6; F = 4; G = 2

O=C(Nc1nc(-c2ccc(S(=O)(=O)N3CCCC3)cc2)cs1)c1ccco1
  A = -50; B = -5; C = 4178; D = -2; E = -3.8; F = ·; G = ·

N#CCSC1=Nc2ccccc2C2=NC(CCC(=O)N3CCN(c4ccccc4)CC3)C(=O)N12 (centres undefined)
  A = -10; B = 3; C = 4076; D = -6; E = 3.0; F = ·; G = ·

O=C(COC(=O)c1cccc(S(=O)(=O)N2CCc3ccccc32)c1)Nc1ncc(C(F)(F)F)cc1Cl
  A = -8; B = -32; C = 1891; D = 3; E = 14; F = -4; G = 1

COc1ccc(CNc2c(CO)cnc3c2cnn3C)cc1
  A = -29; B = 3; C = 3110; D = 6; E = 4.7; F = 0; G = -1

Cc1ccc(-c2cnc(SCC(=O)N3CCCc4ccccc43)n2C)cc1
  A = -28; B = 3; C = 7355; D = ·; E = 4.1; F = 7; G = 6

CC(C)(C)S(=O)(=O)c1nc2ccccc2s1
  A = -10; B = -6; C = 3903; D = -3; E = -1.6; F = -5; G = -9

O=C(O)c1ccc(-c2noc(-c3cccc(Cl)c3)n2)cc1
  A = -45; B = -15; C = 2986; D = ·; E = -8.0; F = 5; G = 1

CCCCN1C2CCCC1CC(NC(=O)c1ccccc1Cl)C2 (centres undefined)
  A = -9; B = 3; C = 3999; D = -12; E = 7.0; F = 6; G = 12

C[C@H](NC(=O)c1nc[nH]c1C(=O)NC(c1ccccc1)c1ccccc1)C(=O)OCc1ccccc1
  A = -18; B = ·; C = 4098; D = -4; E = ·; F = ·; G = ·

CC(=O)Nc1ccc(Nc2nc3ccccc3nc2NS(=O)(=O)c2ccccc2)cc1
  A = -16; B = -5; C = 5654; D = -2; E = 0.9; F = 2; G = 2

COc1ccccc1-n1c(SCC(=O)Nc2ccc(F)cc2)nc2c(c1=O)SCC2
  A = -24; B = -15; C = 5402; D = 8; E = -7.1; F = -7; G = -6

S=C1CCC(c2ccc(Cl)cc2)=NN1c1ccccc1
  A = -5; B = 4; C = 4269; D = 12; E = -1.4; F = 13; G = 11

CCCNC(=O)N1C2CCC1CC(O)(c1cccnc1)C2 (centres undefined)
  A = -9; B = 7; C = 3267; D = -3; E = 3.3; F = 6; G = 4

CC1CC(C)CN(C(=O)CN(C)S(=O)(=O)c2ccc3c(c2)c(=O)n(C)c(=O)n3C)C1 (centres undefined)
  A = 0; B = -7; C = 5504; D = 8; E = -2.5; F = -8; G = -3

CCOC(=O)C1(CC2CCCCO2)CCN(Cc2nc3ccccc3nc2C)CC1 (centres undefined)
  A = -25; B = 11; C = 5053; D = 4; E = 4.0; F = 4; G = 7

COC(=O)Nc1ccc(S(=O)(=O)NCc2ccccn2)cc1
  A = -14; B = 6; C = 4682; D = -7; E = 0.9; F = 6; G = 4

CCCCNC(=O)c1ccc(N2CCOCC2)c(NS(=O)(=O)c2ccc(OC)cc2)c1
  A = -23; B = 13; C = 20173*; D = 7; E = 1.6; F = 5; G = 5

O=C(CCC(=O)n1ncc2ccccc21)NCc1ccc(F)cc1
  A = -37; B = -2; C = 6472; D = 6; E = -10.0; F = 12; G = 10

O=C(CCSCc1ccccc1F)NCc1cccnc1
  A = -11; B = 6; C = 3266; D = 0; E = 2.2; F = 2; G = 5

COc1ccccc1N1C(=O)CC1(C#N)c1ccc(OCc2ccccc2)cc1 (centres undefined)
  A = -6; B = 32; C = 10377; D = 4; E = -0.2; F = 8; G = 5

New compounds follow:
Letters – A = PrP 5UTR inh; B = Sa ugtP lethal; C = Autofluor counter; D = BJeLR lethal; E = RN4220 kill; F = Mtb hypoxia rep; G = Mtb hypoxia rep growth
O=C(COC(=O)c1ccc[nH]c1=O)NCC12CC3CC(CC(C3)C1)C2
  A = -31; B = 11; C = 3358; D = ·; E = 4.7; F = 11; G = -1

COc1ccc(N(CC(=O)N2CCN(c3cccc(C)c3)C(C)C2)S(=O)(=O)c2c(C)n[nH]c2C)cc1 (centres undefined)
  A = -25; B = -12; C = 4159; D = 5; E = 1.3; F = -10; G = 9

CC=C(NC(C)=O)c1ccccc1
  A = ·; B = 4; C = ·; D = ·; E = 3.5; F = 9; G = -3

CCNC(=S)NN=Cc1ccc(C(=O)O)cc1
  A = ·; B = 7; C = ·; D = ·; E = 16; F = 9; G = 8

O=C(CCS(=O)(=O)c1ccc2c(c1)NC(=O)CO2)NCCc1ccc(Cl)cc1
  A = -9; B = 0; C = 5648; D = 4; E = 0.1; F = 6; G = 10

CCOC1=C/C(=C/c2c(N)n3nc(S(=O)(=O)CC)sc3nc2=O)C=CC1=O
  A = -36; B = -8; C = 3230; D = 6; E = 2.1; F = 6; G = 24

Cc1nnc(SCc2cnc(-c3ccccc3)o2)[nH]c1=O
  A = 7; B = 2; C = 2745; D = 5; E = 1.8; F = 1; G = 4

C=CCNC(=O)c1ccncc1
  A = -17; B = 7; C = 8819; D = 4; E = 3.1; F = 12; G = -8

CN(C)CCCCOc1ccc(Br)cc1Cl
  A = -20; B = 0; C = 4003; D = 1; E = 6.6; F = 1; G = 8

COC(=O)Cn1cnc2c(nnn2-c2ccc(F)cc2)c1=O
  A = -11; B = 7; C = 4858; D = -17; E = -2.3; F = 13; G = 6

Cc1cc(C)nc(N/N=C/c2ccccc2OCc2ccc(Cl)cc2)n1
  A = -15; B = ·; C = 10754; D = 7; E = ·; F = ·; G = ·

O=C(CSc1ncccn1)NN=Cc1ccc(OC2CSC2)cc1
  A = ·; B = 2; C = ·; D = ·; E = 0.2; F = -6; G = 4

Cc1ccc(-c2nc3ccccc3c(=O)n2NC(=O)c2cccs2)cc1
  A = -23; B = -13; C = 1881; D = -6; E = 0.8; F = 7; G = 7

Cc1oc(C(C)(C)C)c(CN2CCOCC2)c1C(=O)O
  A = 2; B = 13; C = 4513; D = -5; E = 2.4; F = 5; G = 5

CSCCC(NC(=O)c1ccc([N+](=O)[O-])cc1Cl)C(=O)OCC(=O)NC(=O)CN1CCCC1=O (centres undefined)
  A = -7; B = -3; C = 6493; D = 9; E = -3.4; F = -5; G = 2

COc1ccc(C=NNC(=O)c2ccc3nc[nH]c3c2)c(OC)c1
  A = ·; B = -8; C = ·; D = ·; E = -0.9; F = -12; G = -6

CCCC(=O)N(C)C1=Nc2ccc(Cl)cc2C(c2ccccc2)=[N+]([O-])C1
  A = -47; B = 1; C = 4417; D = 5; E = 2.6; F = 6; G = 2

CC1CCN(S(=O)(=O)c2ccc(NC(=O)N3c4ccccc4Sc4ccccc43)cc2)CC1
  A = -6; B = -8; C = 10555; D = 4; E = -2.5; F = 0; G = 2

CCc1ccc(C(=O)C(C)OC(=O)Cn2cnc3c2c(=O)n(C)c(=O)n3C)cc1 (centres undefined)
  A = 7; B = 6; C = 4975; D = -2; E = 2.8; F = -10; G = -4

Cc1ccc(-c2noc(CCC(=O)Nc3ccccc3N3CCN(C)CC3)n2)cc1
  A = -12; B = 0; C = 2425; D = 2; E = 2.6; F = ·; G = ·

COc1ccc(OC)c(/C=N\NC(=O)c2ccc(=O)n(C)c2)c1
  A = -4; B = ·; C = 10481; D = -5; E = ·; F = ·; G = ·

Cc1ccc2c(CN3CC=C(c4ccccc4)CC3)cc(=O)oc2c1C
  A = -16; B = -1; C = 2848; D = 1; E = 0.0; F = 11; G = 3

O=C(NN=Cc1ccncc1)c1nn(Cc2ccccc2)c(=O)c2ccccc12
  A = ·; B = -4; C = ·; D = ·; E = -1.6; F = -6; G = 4

Cc1ccc(C)c(OCC(=O)NCC(C)(C)N2CCOCC2)c1
  A = 31; B = -3; C = 2786; D = ·; E = 3.9; F = 5; G = 2

Cc1ccccc1C(=O)Nc1ccccc1-n1cccc1
  A = -9; B = 13; C = 10713; D = 3; E = 7.5; F = 2; G = -1

(next part)
SMILES,PrP 5UTR inh,Sa ugtP lethal,Autofluor counter,BJeLR lethal,RN4220 kill,Mtb hypoxia rep,Mtb hypoxia rep growth
CCOc1ccc(NC(=Nc2nc(C)cc(C)n2)NC(C)=O)cc1,·,-4,·,·,1.4,4,16
COc1ccc(N2CCN(CC(O)c3c[nH]c4ccc(OC)cc34)CC2C)cc1 (centres undefined),-17,0,4504,10,-3.1,·,·
CCC(=O)N(C)C(c1ccccc1Cl)c1nnnn1-c1c(C)cccc1C (centres undefined),-17,-4,3900,4,25,9,12
CC1CN(c2ccc([N+](=O)[O-])cn2)CC(C)O1 (centres undefined),-17,3,6207,4,3.8,7,4
N#Cc1c(NC(=O)CSc2n[nH]c(N)n2)oc(-c2ccccc2)c1-c1ccccc1,-22,9,2765,3,-4.3,·,·
Cc1ccc(C(=O)OCC(=O)N2c3ccccc3NC(=O)C2(C)C)cc1S(=O)(=O)N1CCCCC1,-11,1,4077,·,3.2,4,6
Cc1cc(C)nc(NC(=O)/C=C/c2ccc(Cl)cc2)n1,-44,10,3675,-11,0.7,-2,-4
COc1ccc(CC(=O)NNC(=O)CSc2nnc(C)n2-c2ccccc2)cc1,-6,-1,9048,-4,2.1,5,4
Cc1ccc2c(Cl)c(C(=O)NCc3cccnc3)sc2c1,-7,-14,20230*,-7,4.1,-5,8
COc1cc(C2C3=C(Nc4nc(N)[nH]c(=O)c42)c2ccccc2C3=O)ccc1O (centres undefined),-5,14,3640,12,2.0,2,8

Structures shown so far that have a Cl atom:
SMILES,PrP 5UTR inh,Sa ugtP lethal,Autofluor counter,BJeLR lethal,RN4220 kill,Mtb hypoxia rep,Mtb hypoxia rep growth
O=C(Nc1nnc(C2CC2)s1)c1ccc(Cl)nc1,-20,-14,8592,·,3.7,-12,7
O=C(COC(=O)c1cccc(S(=O)(=O)N2CCc3ccccc32)c1)Nc1ncc(C(F)(F)F)cc1Cl,-8,-32,1891,3,14,-4,1
O=C(O)c1ccc(-c2noc(-c3cccc(Cl)c3)n2)cc1,-45,-15,2986,·,-8.0,5,1
CCCCN1C2CCCC1CC(NC(=O)c1ccccc1Cl)C2 (centres undefined),-9,3,3999,-12,7.0,6,12
S=C1CCC(c2ccc(Cl)cc2)=NN1c1ccccc1,-5,4,4269,12,-1.4,13,11
O=C(CCS(=O)(=O)c1ccc2c(c1)NC(=O)CO2)NCCc1ccc(Cl)cc1,-9,0,5648,4,0.1,6,10
CN(C)CCCCOc1ccc(Br)cc1Cl,-20,0,4003,1,6.6,1,8
Cc1cc(C)nc(N/N=C/c2ccccc2OCc2ccc(Cl)cc2)n1,-15,·,10754,7,·,·,·
CSCCC(NC(=O)c1ccc([N+](=O)[O-])cc1Cl)C(=O)OCC(=O)NC(=O)CN1CCCC1=O (centres undefined),-7,-3,6493,9,-3.4,-5,2
CCCC(=O)N(C)C1=Nc2ccc(Cl)cc2C(c2ccccc2)=[N+]([O-])C1,-47,1,4417,5,2.6,6,2
CCC(=O)N(C)C(c1ccccc1Cl)c1nnnn1-c1c(C)cccc1C (centres undefined),-17,-4,3900,4,25,9,12
Cc1cc(C)nc(NC(=O)/C=C/c2ccc(Cl)cc2)n1,-44,10,3675,-11,0.7,-2,-4
Cc1ccc2c(Cl)c(C(=O)NCc3cccnc3)sc2c1,-7,-14,20230*,-7,4.1,-5,8
